NPYLR7 agonist – mosquito NPYLR7 agonism; HEK293T NPYLR7/Galpha15, GCaMP6s calcium fluorescence; activation, % at 10 µM; 270,000 compounds, 0.15% hits; in the data active = activation above about 40%;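 also: 0% = vehicle and 100% = reference agonist at the receptor; some compounds past the cut are filed as inactive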
NPYLR7 agonist max-min – recorded beside NPYLR7 agonist, whose call it bears; activation, %; measured here: Max-Min RFU normalised activation; some inactives read as strong as hits;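 span of the calcium signal over five minutes; 0% = vehicle and 100% = native peptide agonist; compound fluorescence can raise it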
* = called active by the depositor; & = joins results of further samples.

mol | NPYLR7 agonist | NPYLR7 agonist max-min
CC(=O)N1CCN=C1SCc1ccccc1C | 4 | 0
C[C@H](NC(=O)CN1Cc2ccc(-c3ccc(C#N)cc3)nc2C1=O)c1ccccc1 | 5 | 2
COc1ccc(C(=O)NCC(c2ccc(N(C)C)cc2)N(C)C)cc1OC (stereo not given) | 4 | 2
CC(=O)Nc1ccc(NC(C(=O)N2CCCC2)c2ccccc2)cc1Cl (stereo not given) | 8 | 3
C=CCSc1nc2c(c(=O)[nH]1)C(c1ccc(Cl)cc1)C(C(=O)OC(C)C)=C(C)N2 (stereo not given) | -3 | -8
CNS(=O)(=O)c1ccc(NC(=O)C2CC3C=CC2C3)cc1 (stereo not given) | 3 | 4
Cc1sc2nc(CN3CCOCC3)nc(Sc3nnc(C4CC4)o3)c2c1C | 10 | 18
O=C1CC(NCc2ccccn2)CN1CCCc1ccccc1 (stereo not given) | 5 | 4
Cc1ccc(C(CCN2CCCC2)Oc2ccc(C(=O)N3CC=CCC3)cc2)o1 (stereo not given) | 0 | 14
CCCCOc1ccc(-c2nc(C=Nc3cccc(Cl)c3)c(O)o2)cc1 | -8 | -20
COCCN(CC(=O)N(Cc1cccn1Cc1ccccc1Cl)C1CCCCC1)S(=O)(=O)c1ccc(Br)cc1 | -3 | 4
COC(=O)c1nnn(-c2cc(Cl)ccc2C)c1C(=O)OC | -1 | 7
O=C(NCc1cccc(Cl)c1)C1CCCN(S(=O)(=O)c2ccc(F)cc2)C1 (stereo not given) | 20 | 9
COc1ccc(N2CCN(C(=O)c3cn(C4CCCCC4)nn3)C(C)C2)cc1 (stereo not given) | -1 | -5
C=C(C)Cn1c(=O)c2c(nc3n2CCN3c2cc(C)ccc2C)n(C)c1=O | 5 | 3
CC(C)(C)n1cc(NC(=O)Nc2cccc(F)c2)cn1 | 1 | 2
CN(CC1CCCCO1)C(=O)COc1ccccc1O (stereo not given) | 9 | 4
O=C(CN1CCN(c2nnc(C3CC3)s2)CC1)N1CCCCCC1 | 2 | 3
O=C(CCC1CCN(Cc2c(F)cccc2Cl)CC1)N1CCN(c2ccccc2)CC1 | 12 | -2
CCOc1ccc(NC(=O)N2CCN(c3nc(-c4ccc(C)cc4)nc(C)c3C)CC2)cc1 | -8 | -2
COc1ccccc1C(=O)Oc1cc(C)[nH]c(=O)c1[N+](=O)[O-] | 3 | 2
Cc1cccc(C(=O)N[C@@H](C)C(=O)N2CCN(c3ncccn3)CC2)c1 | 8 | 3
CN1CCC(N(C)C(=O)CCC2CCCN(Cc3ccccc3C(F)(F)F)C2)CC1 (stereo not given) | 0 | -6
Cc1ccccc1-c1ccc(=O)n(CC(=O)N2CCCCC2)n1 | 9 | 5
COC(=O)c1ccc(S(=O)(=O)NC(C)c2ccccc2Br)cc1 (stereo not given) | 8 | 8
OCC1(Cc2cccc(Cl)c2)CCCN(Cc2nc(-c3ccc(F)cc3)cs2)C1 (stereo not given) | -5 | -9
Cc1ccc(-c2nc(CC(=O)NCc3ccc(-c4csc(C)n4)s3)cs2)cc1 | -2 | 3
COc1ccc(OC)c(S(=O)(=O)NCCCn2ncccc2=O)c1 | -4 | -6
Cc1nnc(CSc2nc3sc4c(c3c(=O)n2-c2ccccc2C)CCCC4)o1 | 0 | 13
O=S(=O)(NNc1c(F)c(F)c(F)c(F)c1F)c1ccc(Cl)cc1 | 5 | 6
COc1cc(C(=O)N2CCOC(COCc3c(Cl)cccc3Cl)C2)ccc1F (stereo not given) | 3 | 1
O=C(O)c1cccc2c1NC(c1ccc3c(c1)OCO3)C1C3CCC(C3)C21 (stereo not given) | -18 | -25
CCn1nnnc1SCc1ccc(C(=O)N2C3CCC2CC(Oc2ccc(F)cc2F)C3)cc1 (stereo not given) | 1 | -9
CN(C)C=Nc1c(C#N)c2n(c1C(=O)c1ccc(Br)cc1)CCC2 | 19 | 35
Cc1ccc(NC(=O)c2ccc(CS(C)(=O)=O)cc2)c(Cl)c1 | 4 | 5
C[C@]1(Cn2ccnn2)C(C(=O)O)N2C(=O)CC2S1(=O)=O (stereo not given in full) | -1 | 5
Nc1nc2c(s1)CCCC2 | 5 | 4
O=C(c1cc(-c2ccc(Cl)cc2)on1)N1CCN(S(=O)(=O)c2ccccc2)CC1 | -6 | -7
COC(C)C(=O)Nc1cc(C)nn1-c1cccc(C(F)(F)F)c1 (stereo not given) | 4 | 2
O=C(CN1CCC(Cn2cnc3ccccc32)CC1)Nc1cccc(F)c1 | 0 | -3

Structures shown so far containing an NH in an aromatic ring:
mol | NPYLR7 agonist | NPYLR7 agonist max-min
C=CCSc1nc2c(c(=O)[nH]1)C(c1ccc(Cl)cc1)C(C(=O)OC(C)C)=C(C)N2 (stereo not given) | -3 | -8
COc1ccccc1C(=O)Oc1cc(C)[nH]c(=O)c1[N+](=O)[O-] | 3 | 2

Continuation:
mol | NPYLR7 agonist | NPYLR7 agonist max-min
Cc1c(C(=O)N2CCCCC2)sc(NC(=O)c2ccc([N+](=O)[O-])cc2)c1C#N | -10 | -18
C/C(=C\c1ccco1)CN1CCCC1c1ccccn1 (stereo not given) | 15 | 11
CCCCC1CCC(c2noc(-c3ccc(F)cc3)n2)CC1 (stereo not given) | 16 | 10
C=CCNc1nc2c(c(=O)[nH]c(=O)n2C)n1CCCCCCCC | -5 | -6
c1csc(C2C3CCc4ccccc4C3=Nc3ncnn32)c1 (stereo not given) | -1 | 0
Cc1nsc(NC(=O)NCc2cccc(CN3CCCC3)c2)n1 | 0 | -8
O=C(c1coc(CN(Cc2ccccc2)Cc2cccc(F)c2)n1)N1CCCC1 | 6 | 18
Cc1ccc(C)n1-n1cnc2scc(-c3ccc(C(C)C)cc3)c2c1=O | -4 | -9
O=C(NCCCN1CCCC1=O)C(C1CCCC1)N1CCN(C(=O)Nc2ccccc2)CC1 (stereo not given) | -8 | -5
Cc1ccc(CN(Cc2ccc(F)cc2)C(=O)CN(C(=O)c2cccs2)C2CC2)s1 | -10 | -3
O=C([C@@H]1CCCN1c1nccc(Nc2ccccc2)n1)N1CC[C@@H](O)C1 | -1 | -1
CC(C)c1ccc(C(=O)c2c(N)c(C(=O)Nc3ccc(F)cc3)c3ccccn23)cc1 | -3 | -9
O=c1[nH]c(=O)n(C2CCCO2)cc1F (stereo not given) | -9&7 | -14&7
O=C1NCC(C(=O)NC(c2ccccc2)c2ccc(Cl)cc2)N1 (stereo not given) | 19 | 15
O=C(c1cc(-c2ccccc2)nc2cc(-c3ccccc3)nn12)N1CCN(c2cccc(C(F)(F)F)c2)CC1 | 15 | 15
COC(=O)Cn1c(=NC(C)=O)sc2cc(S(C)(=O)=O)ccc21 | 2 | 0
Cc1cc(C)n2c(NC(C)(C)CC(C)(C)C)c(-c3cccs3)nc2c1 | 33 | 31
Cc1ccn2c(NC(=O)C3CCCC3)c(-c3ccccc3)nc2c1 | -4 | -2
CN1C(=O)C2(c3cc(Br)ccc31)N1CC3(C)CN2CC(C)(C1)C3=O (stereo not given) | 1 | -4
CCC1=NOC(C(=O)NCCc2nc3ccccc3c(=O)[nH]2)C1 (stereo not given) | 24 | 16
Cc1ccccc1CC(=O)NC1CCc2[nH]c3ccc(Br)cc3c2C1 (stereo not given) | 0 | -1
CSc1cccc(-n2c(C)ccc2C)c1 | 2 | 1
Cc1cccc(CN2CCC3(CC2)NC(=O)c2c(Cl)cccc2N3)c1 | 0 | 10
CC(C)c1nc2cc(C(=O)N3CCNC(=O)C3Cc3ccccc3)ccc2o1 (stereo not given) | 2 | 1
COC(=O)N1CCC(NC(=O)CCSc2nc3ccccc3s2)CC1 | -1 | 226
COc1ccc(NC(=O)c2cc3nc(-c4ccc(Br)cc4)cc(C(F)(F)F)n3n2)c(OC)c1 | 0 | -10
Cn1cc(C(=O)N2CCN(C(=O)CC3CCCC3)CC2)c2nn(-c3ccccc3)c(=O)c-2c1 | -1 | -1
CCc1ccc(-c2ccc(=O)n(CC(=O)NC3CCCC3)n2)cc1 | 11 | 5
CC(C)(C(=O)N1CCN(C(=O)c2cccc(OC(F)F)c2)CC1)c1ccccc1 | 6 | 4
COC(=O)c1c(N)sc(C)c1C | 7 | 3
Cc1ccccc1COc1cn(CC(=O)Nc2cccc(F)c2)c(CO)cc1=O | -1 | -2
Oc1cccc(Nc2nc3ccccc3n3cnnc23)c1 | 2 | 2
CCN(C)c1cc(-c2ccnc3[nH]ccc23)ncn1 | 1 | -3
COc1cccc(CN2CCC2(C)C(=O)NCc2cccc3ccccc23)c1OC (stereo not given) | 6 | 3
O=S(=O)(Nc1cc(Cl)ccc1F)c1cc(Cl)ccc1Cl | 0 | -8
Cc1cccc(-c2ncc(CNCCCc3ccccc3)cn2)c1 | -3 | -5
Cc1cc(Cl)cc2c3c([nH]c12)CCC(NC(=O)CCN1CCCCC1)C3 (stereo not given) | 18 | 8
Cc1cc(NC(=O)CN2CCN(CC3CCCO3)CC2)ccc1Cl (stereo not given) | 22 | 12
COCc1ccc(CN2CCC(CCC(=O)Nc3cccc(OC)c3)CC2)o1 | 14 | 3
Cc1nn(-c2ccccc2)c(N2CCCCC2)c1C=C(C#N)C#N | 4 | 2

Full records, looked up by structure. Screens in order: NPYLR7 agonist, NPYLR7 agonist max-min
COCc1ccc(CN2CCC(CCC(=O)Nc3cccc(OC)c3)CC2)o1 is entered as 14, 3
O=S(=O)(Nc1cc(Cl)ccc1F)c1cc(Cl)ccc1Cl is entered as 0, -8
Cc1cccc(-c2ncc(CNCCCc3ccccc3)cn2)c1 is entered as -3, -5
Cc1cc(NC(=O)CN2CCN(CC3CCCO3)CC2)ccc1Cl (stereo not given) is entered as 22, 12

The listing continues.
mol | NPYLR7 agonist | NPYLR7 agonist max-min
CCCN(CC(=O)Nc1c(-c2ccccc2)c(C)nn1-c1ccc(C)cc1)C(=O)Nc1ccccc1Br | 9 | 11
Cc1[nH]cnc1C(=O)N1CCCC(O)(CN(C)C)C1 (stereo not given) | -1 | -3
CN(C)c1ccc(C(CC(=O)O)C(=O)O)cc1 (stereo not given) | -9 | -10
CCN1CCN(c2c(CN(C(=O)Nc3ccccc3OC)C3CC3)c(C)nn2-c2cccc(F)c2)CC1 | 23 | 35
Cc1nc(-c2ccc(-c3cccs3)s2)n(CC(=O)N(C)Cc2ccco2)c1C | 8 | 0
Cc1cc(-c2csc(N)n2)c(C)n1CCc1cccs1 | 6 | 13
CSc1ccc(C(=O)CC(C)(C)C(=O)NCCCCc2ccccc2)cc1 | 0 | -4
CC(C)Oc1ccc(C(=O)Oc2coc(CSc3nncn3C)cc2=O)cc1 | -5 | -10
O=C1NC2(Nc3ccccc31)C(=O)Nc1ccccc12 (stereo not given) | 5 | 3
CCCc1nc(C)sc1C(=O)Nc1ccc(CP(=O)(OCC)OCC)cc1 | -9 | -10
CC(=O)NC1C(=O)N(Cc2ccccc2OC(C)C)c2ccccc21 (stereo not given) | 0 | 2
CCOC(=O)N1CCN(C(=O)c2cc(-c3ccc(Cl)cc3)n(-c3ccccc3OC)c2C)CC1 | -8 | -4
CC1(C)CC(=O)C2(Cc3cc(N)ccc3N3CCCC32)C(=O)C1 (stereo not given) | 3 | 44
O=C(O)c1[nH]ncc1CN1CCC1c1ccc(F)cc1 (stereo not given) | 2 | -1
Cc1nn(C)c(C)c1NC(=O)CSc1nnnn1C(C)(C)C | 3 | 2
COc1ccc(CCOC(=O)C2CCCCN2C(=O)C2CCN(C(=O)OC(C)(C)C)CC2)cc1OC (stereo not given) | -7 | -11
O=C(CSc1nc2c(cnn2CCO)c(=O)[nH]1)N1CCN(c2ccccc2)CC1 | 4 | 3
CN(C)/C=C1/CCc2c([nH]c3ccccc23)C1=O | -3 | -6
CN1C(=O)c2ncccc2C1CC(N)=O (stereo not given) | 3 | 11
C=C(C)Cn1c(SCc2ccc(C)cc2)nc2c1c(=O)n(C)c(=O)n2C | 7 | 7
CC(c1ccc(F)cc1)N(C)C(=O)Cc1csc(NC(=O)c2ccco2)n1 (stereo not given) | 2 | 0
CC(C)Oc1cccc(Nc2cc3[nH]c(-c4ccc(C(=O)N(C)C)cc4)cc3cn2)c1 | -1 | 7
N#CC1(C#N)[C@@H]2c3ccccc3C=CN2[C@@H](C(=O)c2cccs2)[C@@H]1c1ccsc1 | 11 | 3
COC(=O)Cn1c(=NC(=O)C2CCCN2S(=O)(=O)c2cccs2)sc2ccccc21 (stereo not given) | -5 | -7

Next section (two carried over from the part before).
mol | NPYLR7 agonist | NPYLR7 agonist max-min
N#CC1(C#N)[C@@H]2c3ccccc3C=CN2[C@@H](C(=O)c2cccs2)[C@@H]1c1ccsc1 | 11 | 3
COC(=O)Cn1c(=NC(=O)C2CCCN2S(=O)(=O)c2cccs2)sc2ccccc21 (stereo not given) | -5 | -7
CCCCN(CC(=O)N(CCc1c[nH]c2ccccc12)Cc1ccc(Cl)c(Cl)c1)C(C)C(=O)OC (stereo not given) | 0 | 4
CCOC(=O)N1CCN(c2c(N3CCN(C)CC3)c(=O)c2=O)CC1 | 5 | 4
Nc1ncc(-c2cccc(OC(F)(F)F)c2)cc1/C=C\c1ccccc1 | -2 | -6
Cc1nc2sccc2c(=O)n1/N=C\c1ccc(Cl)c(Cl)c1 | 0 | -2
O=C(NC1CC(=O)N(Cc2cccc(F)c2)C1)C(=O)c1ccco1 (stereo not given) | 24 | 4
Cn1cc(C(=O)NC2CCN(Cc3cccs3)CC2)ccc1=O | 7 | 3
c1cc(-c2nccn2CCN2CCCCC2)cc(-n2cccn2)c1 | 0 | 2
O=S1(=O)c2cccnc2OC(CN2CCOCC2)CN1CCC1=CCCCC1 (stereo not given) | -1 | 8

Compounds listed so far containing a nitro group on carbon, in the order listed:
mol | NPYLR7 agonist | NPYLR7 agonist max-min
COc1ccccc1C(=O)Oc1cc(C)[nH]c(=O)c1[N+](=O)[O-] | 3 | 2
Cc1c(C(=O)N2CCCCC2)sc(NC(=O)c2ccc([N+](=O)[O-])cc2)c1C#N | -10 | -18

Going on with the list.
mol | NPYLR7 agonist | NPYLR7 agonist max-min
O=C(CSc1nc2ccccc2[nH]1)Nc1nc2ccccc2s1 | -10 | -15
O=C(C=Cc1ccc([N+](=O)[O-])o1)c1ccc(F)cc1 | -8 | -8
CCOC(=O)c1cc([N+](=O)[O-])nn1Cc1ccc(Cl)c(Cl)c1 | 3 | 3
COc1cccc(-c2nnc(NC(=O)c3ccc(S(=O)(=O)N(C)CC4CCCO4)cc3)o2)c1 (stereo not given) | -3 | -1
O=C(CCc1ccccc1)N1CCN(c2nccc(-c3ccc4c(c3)OCO4)n2)CC1 | 28 | 31

The list is partial; count on the stated rates, not on these rows.
